GIV Gai3 FP – inhibitors of GIV GBA-motif binding to rat Galpha-i3; P08753; Galpha-i3/FITC-GIV peptide fluorescence polarization, 90 min; active compounds read low; scaled: aluminum fluoride 0%, vehicle 100%; percent of control (FP), % (no concentration beside the values); 0.42% of 210,000 active; AID 1224905;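 active means replicate mean at 85% of control or lower, very high polarization wells dropped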;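 further: wells of about 15 µL received 100 nL stock; the first replicate is given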
Target sequence (P08753 whole entry, looked up): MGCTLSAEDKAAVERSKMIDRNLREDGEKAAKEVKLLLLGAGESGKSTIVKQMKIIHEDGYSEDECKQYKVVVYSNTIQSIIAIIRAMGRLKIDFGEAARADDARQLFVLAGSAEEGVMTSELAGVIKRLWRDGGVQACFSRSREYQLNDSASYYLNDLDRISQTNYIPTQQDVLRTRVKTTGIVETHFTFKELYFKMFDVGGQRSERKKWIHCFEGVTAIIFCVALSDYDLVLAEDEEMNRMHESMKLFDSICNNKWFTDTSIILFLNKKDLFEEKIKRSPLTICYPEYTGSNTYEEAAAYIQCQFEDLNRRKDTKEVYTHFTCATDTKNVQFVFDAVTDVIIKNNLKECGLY
HCMV UL50-53 inh – cytomegalovirus nuclear egress complex inhibition; HTRF UL50-UL53 interaction, normalized percent inhibition; inhibition, % (test concentration not listed); 0.15% of 190,000 active;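 active means both replicates at 50% or more, plus weaker picks with an unusually low signal ratio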;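 further: stock transfer was 100 nL into about 20 µL; 0% = negative control wells and 100% = wells with untagged competitor protein; inactives centre near -12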
Sa growth 42C – blocks Staphylococcus aureus growth; S. aureus RN4220 growth, OD600, 20 h, 42 °C; active compounds read low; relative growth, % (test concentration not listed); 0.53% of 170,000 active; AID 720641;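 active means growth at 42 °C up to 50% and 20 or more points under that at 30 °C, or under 10% at both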;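 further: 300 nL library stock went into each well; scaled to the means of positive and negative controls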
Sa growth 42C second temp – recorded beside Sa growth 42C, whose call it bears; relative growth, %; measured here: growth at 30 °C;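 optical density after 20 h as mean of two plates; 100% = untreated growth and lower means inhibition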
Starred values were filed as active, the others as inactive; . = not tested or not shown; & = joins results of further samples. Compounds as they come. About 0.83% of those tested had a hit in this group.

nr	Molecule	GIV Gai3 FP	HCMV UL50-53 inh
1	CC(C)Oc1ccccc1C(O)c1nnc(-c2ccccc2)o1 (stereo not given)	.	-33
2	COc1ccc(N=C2SCC(c3ccc(C)cc3)=NN2CCO)cc1	105	-8
3	CS(=O)(=O)N(CCc1ccccc1)CC(=O)N1CCc2ccccc2C1	107	4
4	Cc1ccc2[nH]c(=O)c(-c3noc(C(C)(C)C)n3)cc2c1	101	.
5	Cc1ccc(NC(=O)/C(C#N)=C\c2ccc(Cl)cc2Cl)cc1C	99	-16
6	O=C(CCCC1=NS(=O)(=O)c2ccccc2N1)N1CCCCCC1	99	.
7	Cc1noc(C)c1CSCC(=O)OCn1nnc2ccccc2c1=O	.	-17
8	COc1ccc(NC(=O)Cn2c(=O)nc(-c3ccccc3)c3ccccc32)cc1OC	99&109	-37
9	CC(OC(=O)c1cc2sccc2n1C)C(=O)NCc1cccs1 (stereo not given)	98	-3
10	COc1ccccc1-c1nc(COc2ccc(Cl)cc2Cl)no1	103	-4
11	Cc1[nH]c(-c2ccc(F)cc2)cc1C(=O)NCc1ccccn1	104	5
12	Cc1ccc(Cl)cc1N1CCN(C(=O)CN2C(=O)COc3ccc(S(=O)(=O)N4CCCCCC4)cc32)CC1	101	-14

nr	Sa growth 42C	Sa growth 42C second temp
1	83	87
2	85	73
3	97	100
4	104	97
5	97	84
6	90	81
7	106	101
8	90	91
9	98	88
10	98	79
11	100	88
12	107	90

The listing continues:
nr	Molecule	GIV Gai3 FP	HCMV UL50-53 inh
13	COc1ccc(S(=O)(=O)c2cc3cc(Br)ccc3oc2=O)cc1OC	101	2
14	O=S(=O)(c1ccccc1)c1nc(-c2ccc(F)cc2)oc1N1CCOCC1	100	-12
15	COC(=O)Cn1c(=NC(=O)CSCC(=O)Nc2nccs2)sc2cc(OC)ccc21	101	-9
16	COc1ccc(Cn2nnnc2C(C(C)C)N2CCc3ccccc32)cc1 (stereo not given)	103	3
17	O=C1CC(N2CCOCC2)C(=O)N1 (stereo not given)	103	15
18	CCOc1ccc(NC(=O)Nc2cccc(C)n2)cc1	107	-8
19	COc1ccccc1S(=O)Cc1ccc(C(=O)O)o1 (stereo not given)	91	.
20	CC(C)(C)C(=O)Nc1ncccc1C(=O)O	103	-10
21	COc1cccc(CN2CCN(Cc3cc(OC)ccc3OC)CC2)c1	104	-4
22	O=C(O)c1ccc(CSc2nnc(-c3ccccc3)o2)cc1	.	-15
23	Cc1cccc(C)c1NC1OC(=O)c2ccccc21 (stereo not given)	99	.
24	Cc1cc(C)c(OCC(=O)N(Cc2cccc(F)c2)Cc2ccco2)c(C)c1	98	-3

nr	Sa growth 42C	Sa growth 42C second temp
13	106	96
14	107	87
15	104	94
16	109	91
17	103	102
18	116	87
19	104	89
20	104	81
21	.	.
22	107	94
23	109	82
24	101	69

New compounds follow:
nr	Molecule	GIV Gai3 FP	HCMV UL50-53 inh
25	O=C(NCC(F)(F)F)c1ccc(N2CCCC2=O)cc1	.	-43
26	CCOCCCNC(=O)c1ccc(-c2nc(CS(=O)(=O)c3ccccc3)c(C)o2)cc1	107	.
27	C=C(C)C(C)(O)C#CCN1CCCC1 (stereo not given)	99	-11
28	Cc1cc(Sc2ccccc2NC(=O)Nc2ccccc2)n2ncnc2n1	108	-30
29	Cc1ccc(C(=O)Nc2ccc(Oc3ccccc3)cc2)cc1I	.	-6
30	N#CC(C#N)C(CC(=O)c1ccc(Cl)cc1)c1cccs1 (stereo not given)	102	8
31	Cc1nc2sccn2c(=O)c1S(=O)(=O)N1CC(=O)N(CCc2ccccc2)C(=O)C1	103	-17
32	O=C(Cc1ccc(F)cc1)Nc1ccc(CN2CCCC2)cc1	107	-29
33	CCOc1ccc(Oc2c(/C=N/NC(N)=O)c(C)nn2-c2ccccc2)cc1	.	-26
34	CS(=O)(=O)c1ccc2nc(NC(=O)c3ccc4nc[nH]c4c3)sc2c1	.	-12
35	COC(=O)[C@@H](N)Cc1ccc(O)c(O)c1	105	-41
36	O=C(C1CCCCC1)N1CCN=C1SCc1cccnc1	104	-17

nr	Sa growth 42C	Sa growth 42C second temp
25	101	86
26	120	90
27	81	88
28	.	.
29	109	92
30	98	72
31	93	86
32	96	102
33	96	88
34	112	96
35	.	.
36	75	88

Additional compounds follow:
nr	Molecule	GIV Gai3 FP	HCMV UL50-53 inh
37	COc1ccc(-c2noc(-c3cc4ccccc4o/c3=N\NS(=O)(=O)c3ccc(OC)c(OC)c3)n2)cc1	104	-8
38	Cc1ccc(Nc2c(-c3cccs3)nc3nc(C)cc(C)n23)cc1	103	-25
39	Cc1cc(C)cc(NC(=O)C2CCN(c3nnc(-n4c(C)ccc4C)s3)CC2)c1	99	-30
40	O=c1oc2c3c(ccc2c2c1CCC2)OCN(CCc1ccccc1)C3	105	-39
41	CN(C)CCN(Cc1ccccc1)S(=O)(=O)c1ccc(-c2cc(C(F)(F)F)on2)s1	103	.
42	CCc1c(C(=O)N2CCN(Cc3cccc(OC)c3)CC2)csc1C	109	0
43	CC(C)CCn1c(=O)c2ccccc2n2c(CN3CCCC3)nnc12	.	-16
44	O=C(CC(c1ccccc1)c1ccccc1)Nc1nnc(-c2ccccc2)o1	.	-18
45	COc1cccc(CNC(=O)C(=O)NCC(c2cccs2)S(=O)(=O)c2cccs2)c1 (stereo not given)	101	.
46	Cc1c(C)c(C)c(C(=O)c2ccccc2C(=O)NN)c(C)c1C	98	-27
47	CN(Cc1ccccc1)Cn1[nH]c(=O)ccc1=O	106	-3
48	CCOC(=O)Cn1c(=O)oc2cc(S(=O)(=O)NCc3ccccc3OC)ccc21	98	-15

nr	Sa growth 42C	Sa growth 42C second temp
37	85	93
38	87	41
39	94	84
40	90	80
41	93	86
42	127	99
43	84	89
44	56	43
45	116	81
46	96	91
47	91	99
48	106	95

Going on with the list:
nr	Molecule	GIV Gai3 FP	HCMV UL50-53 inh
49	O=C(CSC1=Nc2ccccc2C2=NC(CCC(=O)NC3CCCCC3)C(=O)N12)Nc1cccc(C(F)(F)F)c1 (stereo not given)	103	-15
50	O=C(NCCN1CCN(C(=O)NC2CCCCC2)CC1)NC1CCCCC1	99	-25
51	Cc1ccc(CNC(=O)CCCn2nc(-n3cccc3)c3c(C)cc(C)nc32)cc1	104	-29
52	O=C(O)c1nccnc1C(=O)NC1CCN(Cc2c(F)cccc2Cl)CC1	98	15
53	Cc1ccccc1OCC(=O)OCC(=O)N1c2ccccc2CC1C (stereo not given)	.	24
54	FC(F)(F)Oc1ccccc1NC(=S)NCc1ccc2c(c1)CCO2	105	6
55	CN(C)c1nc2cc(Cl)ccc2o1	.	-24
56	COc1ccc2cc3cc(C(=O)N4CCN(c5ccccc5F)CC4)oc3nc2c1	104	-30
57	Cc1nc2ccc(Br)cc2c(=O)n1-c1ccccc1N1CCOCC1	111	-9
58	Cc1cccc(-c2ccc(Nc3ccc(C(=O)NCCC(C)C)cc3)nn2)c1	101	-3
59	COc1cccc2c1Oc1ncccc1N(c1ccc(C(=O)NCc3cccc(C)c3)s1)C2	103	.
60	Cn1cc(C(=O)NCCc2ccc(Cl)cc2)c(=O)c2cc(S(=O)(=O)N3CCOCC3)ccc21	100	-17

nr	Sa growth 42C	Sa growth 42C second temp
49	98	88
50	91	80
51	112	97
52	110	98
53	97	100
54	104	85
55	110	81
56	114	95
57	101	93
58	.	.
59	103	95
60	100	89

An excerpt of these results, with two lines to a compound.
Every second line gives: GIV Gai3 FP	HCMV UL50-53 inh	Sa growth 42C	Sa growth 42C second temp
[24] Cc1cc(C)c(OCC(=O)N(Cc2cccc(F)c2)Cc2ccco2)c(C)c1
    98	-3	101	69
[25] O=C(NCC(F)(F)F)c1ccc(N2CCCC2=O)cc1
    .	-43	101	86
[26] CCOCCCNC(=O)c1ccc(-c2nc(CS(=O)(=O)c3ccccc3)c(C)o2)cc1
    107	.	120	90
[27] C=C(C)C(C)(O)C#CCN1CCCC1 (stereo not given)
    99	-11	81	88
[28] Cc1cc(Sc2ccccc2NC(=O)Nc2ccccc2)n2ncnc2n1
    108	-30	.	.
[29] Cc1ccc(C(=O)Nc2ccc(Oc3ccccc3)cc2)cc1I
    .	-6	109	92
[30] N#CC(C#N)C(CC(=O)c1ccc(Cl)cc1)c1cccs1 (stereo not given)
    102	8	98	72

More compounds:
nr	Molecule	GIV Gai3 FP	HCMV UL50-53 inh
61	CC(Sc1nc(C2CC2)n(-c2ccccc2)n1)C(=O)NC(C)(C#N)C(C)C (stereo not given)	.	-11
62	COC(=O)c1ccc(NC(=O)C2CCCN2C(=O)OCc2ccccc2)cc1 (stereo not given)	.	-2
63	COCCCNC(=O)COCc1cc(-c2ccc3c(c2)OCO3)on1	99	-3
64	COc1cccc(NC(=O)CSC2=Nc3ccccc3C3=NC(CC(=O)NCc4cccs4)C(=O)N23)c1 (stereo not given)	98	.
65	Cc1ccc(NC(=O)CCS(=O)(=O)c2cc3c4c(c2)CCN4C(=O)CC3)c(C)c1	104	.
66	Nc1nc(CSc2nnc(-c3cccc(F)c3)n2-c2ccccc2)nc(N2CCOCC2)n1	105	8
67	CCC(Sc1nc(C)cc(C)n1)C(=O)Nc1sc2c(c1C#N)CCCC2 (stereo not given)	.	-13
68	CC(C)Cn1c(SCC(=O)Nc2ccc(F)cc2F)nc2ccccc2c1=O	.	-15
69	O=C(Oc1ccc(-c2ccccc2)nn1)c1cccs1	104	-28
70	Cc1c(C=Nc2cccc3nsnc23)c(=O)n2c([nH]c3ccccc32)c1C#N	.	-9
71	CCCNC(=O)Nc1ccc2c(c1)CCC2	100	-15
72	COc1cccc(C(O)C(F)(F)F)c1 (stereo not given)	97	20

nr	Sa growth 42C	Sa growth 42C second temp
61	99	92
62	90	75
63	.	.
64	96	89
65	109	83
66	78	100
67	97	84
68	106	97
69	100	104
70	109	94
71	104	81
72	95	79

Later entries.
nr	Molecule	GIV Gai3 FP	HCMV UL50-53 inh
73	CCOc1ccccc1CN1CCc2nc(Nc3ccc4c(c3)OCCO4)ncc2C1	107	.
74	CNC(=O)Cn1c(=O)c2cccn2c2ccc(F)cc21	101&104	-13&-11
75	CC(=O)NC(NC(C)=O)c1ccccc1	107	-18
76	CN(C(=O)COC(=O)c1cncc(Br)c1)c1ccccc1	.	5
77	Cc1cc2c(cc1C)NC(CC(=O)Nc1cccc(C)c1C)C(=O)N2 (stereo not given)	111	-24
78	CCCCS(=O)(=O)/C=C/C1C2C=CC(C2)C1S(=O)(=O)CCCC (stereo not given)	.	7
79	Cc1cc2nc3c(=O)n(C)c(=O)n(C)c3nc2cc1N=CN(C)C	118	-67
80	CCOC(=O)CC1=CC(SCC(=O)NC2CCc3ccccc32)=Nc2ccccc2N1 (stereo not given)	108	-16
81	COc1ccc(OC)c(CNC(=O)c2nn(C)c3c2CS(=O)(=O)c2ccccc2-3)c1	103	-17
82	O=C(Nc1ccccc1C(=O)O)c1cc[n+]([O-])cc1	.	-66
83	CCOC(=O)C1=C(N)OC2=C(C(=O)CC(C)(C)C2)C1c1ccc(O)c(OC)c1 (stereo not given)	99	-31
84	O=C(C1CC(=O)N(c2ccccc2)C1)N1CCc2ccccc2C1 (stereo not given)	103	-24

nr	Sa growth 42C	Sa growth 42C second temp
73	111	98
74	129	94
75	124	104
76	69	91
77	100	89
78	96	105
79	95	87
80	.	.
81	130	88
82	118	79
83	.	.
84	93	99

Next part:
nr	Molecule	GIV Gai3 FP	HCMV UL50-53 inh
85	Cc1[nH]n(-c2ccccc2)c(=O)c1Sc1c(F)c(F)c(F)c(F)c1F	109	-14
86	COc1ccc(-n2nc3cc(C)c(NC(=S)NC(=O)c4oc5ccccc5c4C)cc3n2)cc1	100	-37
87	CC(C)CCNC(=O)c1ccc(Cn2c(SCC(=O)NC(C)C)nc3ccccc3c2=O)cc1	103	.
88	COc1ccc(CCC(=O)NCc2cn3ccc(C)cc3n2)cc1	105	.
89	Cc1cccc(C(=O)NCC(=O)OCc2cc(=O)n3nc(CC(C)C)sc3n2)c1	107	.
90	O=S(=O)(NC1CCc2ccccc21)c1ccc(S(=O)(=O)N2CCCC2)cc1 (stereo not given)	102	-5
91	CC1(C)CC(=O)C=C(NCC2CCN(C(=S)Nc3ccccc3)CC2)C1	105	.
92	COC(=O)c1cc2oc(C)cc2n1Cc1ccc(Br)cc1F	104	-16
93	O=C(O)C1CCC(CNCc2c(Cl)cccc2Cl)CC1 (stereo not given)	102	.
94	COc1cccc2sc(N(Cc3cccnc3)C(=O)c3ccc4c(c3)OCCO4)nc12	103&101	.
95	CCCNS(=O)(=O)c1ccc(CCC(=O)NC2CCCC2)cc1	94	-12
96	O=C(Nc1cccc(Cl)c1)c1c(O)c2ccccc2[nH]c1=O	104	-29

nr	Sa growth 42C	Sa growth 42C second temp
85	16	8
86	88	84
87	112	102
88	95	74
89	95	94
90	95	105
91	96	83
92	113	99
93	94	81
94	90	84
95	107	97
96	.	.

Compound activity from PubChem BioAssay.
